# MgrA-DNA mod – modulators of Staphylococcus aureus MgrA DNA binding | 84,000 tested, 0.13% active | AID 602314 | inhibition, %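 (about 10 µg/mL by stock and volumes)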 | fluorescence polarization;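 active means above 50% in either of two replicates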;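 further: 0% = protein plus DNA without compound and 100% = DNA alone without protein; higher means less MgrA bound to DNA so lower polarization; one replicate is shown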
# S aureus helic – S. aureus DNA helicase inhibition; inhibition, %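 (tested at about 80 µM)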; 120,000 tested, 0.05% active; purified S. aureus helicase, fluorescence unwinding assay; about half of the hits fall short of the stated cut;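 active means both duplicates at 50% or more, or one of them with a favoured structure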;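 further: 0% = mean of negative control wells and 100% = mean of positive control wells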
# * hit, by the source's call; . = no result given.
MgrA-DNA mod	S aureus helic	Molecule
-0.5	12	CC1CCN(C(=O)Cn2c(=O)n(Cc3ccc(F)cc3)c(=O)c3ccccc32)CC1
-21	13	Cc1cc(-c2ccccc2)n2ncc(C#N)c2n1
0.3	.	O=C(Oc1c([N+](=O)[O-])cc(C(F)(F)F)cc1[N+](=O)[O-])c1c(F)cccc1Cl
-1.5	.	COc1ccc(Oc2ccc([N+](=O)[O-])cc2C(=O)O)cc1
-0.3	9	O=C(CSc1nc2ccccc2n1-c1ccccc1)NCC1CCCO1 (stereo unspecified)
.	-15	Cc1ccccc1NC(=O)C(C)c1c(C)n[nH]c1C (stereo unspecified)
.	5	CCc1ccc(NC(=O)CSc2nc3c(oc4ccccc43)c(=O)n2CC)cc1
.	7	c1csc(-c2nnc3n2C2(CCCC2)Cc2ccccc2-3)c1
-0.6	10	O=C1N(Cc2ccccc2)CCCC12CCCN(Cc1ccccc1)C2=O
-1.1	0	O=C1CCN=C(SCC(=O)Nc2ccccc2)N1
.	7	Cc1cc(C)n(-c2nc(NC(C)C)nc(NC(C)C)n2)n1
-1.8	14	CC(C)C(=O)Nc1ncc(Cc2ccccc2)s1
.	6	CCCN(CC(=O)Nc1ccccc1C(=O)NC1CC1)Cc1nnc(-c2ccco2)o1
.	8	O=C(Nc1cccc(Cl)c1)c1scc2c1OCCO2
.	6	CN(C)c1ccc(NC(=O)COC(=O)c2ccc(Br)cc2)cc1
.	-19	Oc1ccccc1-c1csc(-c2ccccc2)n1
-0.2	3	CC(=O)Nc1cc2c(ccc3ccccc32)oc1=O
1.5	7	OCc1cc2c(s1)CCCC2
.	13	CS/C(=N\S(=O)(=O)c1cccs1)NC(=O)c1ccccc1
.	6	CN(C)Cc1ccccc1CNC(=O)c1cc(Cl)nc(Cl)c1
-3.0	9	COc1nc(N2CCCCCC2)nc(N2CCCCCC2)n1
-2.0	.	Cc1cc(S(=O)(=O)CC#N)c(C)cc1Cl
.	8	O=C(O)C1CCN(C(=O)c2cc3sccc3n2Cc2ccc(F)cc2)CC1
-1.7	3	O=S1(=O)CCC(NS(=O)(=O)c2ccccc2)C1 (stereo unspecified)
.	3	O=S(=O)(Cc1cccc(F)c1)c1c[nH]c2ccccc12
.	-15	Cc1csc(=O)n1CCN1C(=O)NC2(CCC(C)CC2)C1=O (stereo unspecified)
1.6	.	O=C(NCc1ccco1)c1ccc(Oc2cc(Cl)cc(Cl)c2)o1
.	-14	O=S(=O)(c1ccc(-c2csc(-c3cccnc3)n2)cc1)N1CCCCC1
.	3	NC(=O)COC(=O)c1cc(-c2ccccc2)c(N2CCOCC2)s1
.	19	CCCCn1c(=O)n(C)c(=O)c2c(C(=O)OC)cc(-c3ccccc3OC)nc21

# Reformatted field by field: two of the compounds above.
SMILES: Cc1cc(S(=O)(=O)CC#N)c(C)cc1Cl
  MgrA-DNA mod: -2.0
  S aureus helic: .

SMILES: CN(C)c1ccc(NC(=O)COC(=O)c2ccc(Br)cc2)cc1
  MgrA-DNA mod: .
  S aureus helic: 6

# (further entries)
MgrA-DNA mod	S aureus helic	Molecule
.	-117	O=C(Cn1cc(/C=c2/sc3nc4ccccc4n3c2=O)c2ccccc21)N1CCCC1
-0.3	.	Cc1c(C#N)c(NC(=O)c2ccc(Cl)cc2)n(Cc2cccnc2)c1C
.	-6	O=C(C1=NN(C2CCS(=O)(=O)C2)C(=O)CC1)N1CCc2ccccc21 (stereo unspecified)
.	4	COc1ccccc1N1CCN(C(=O)c2ccc[nH]c2=S)CC1
.	-3	Cn1nnnc1SCC(=O)c1ccc2c(c1)CCC(=O)N2
6.8	5	Cc1ccc(C(=O)c2cnc3cc4c(cc3c2N2CCC(C(N)=O)CC2)OCO4)cc1C
-1.3	-1	Cc1ccc(S(=O)(=O)N2CCOCC2)c(C)c1
.	4	O=c1ccc(-c2ccccc2)nn1CCN1CCCCC1
.	-4	CC1CCCCC1n1c(SCc2cc(=O)n3ccsc3n2)nnc1-c1cccnc1 (stereo unspecified)
.	-11	COC(=O)c1ccc(C)c(NC(=O)CCn2[nH]c(=O)ccc2=O)c1
.	0	O=C(Cn1cnc2c(cnn2-c2ccccc2)c1=O)N1CCCC1
.	-13	COc1cccc(C(=O)N2CCN(Cc3cccc4ccccc34)CC2)c1
-2.0	.	Cc1cc(C(=O)O)nn1-c1ccccc1
1.2	-28	CN1CCC(N(C)C(=O)c2cc3sc4ccccc4c3s2)CC1
-5.7	10	COc1ccc2nc3oc(C(=O)N4CCC(N5CCCCC5)CC4)cc3cc2c1
.	-14	Cc1nn(-c2ccccc2)c2sc(C(=O)OCC(=O)C(C)(C)C)cc12
.	13	O=S(=O)(c1ccccc1)c1nc(Nc2ccccc2N2CCOCC2)sc1Cl
-0.3	.	COc1ccc(C2CC(C(F)(F)F)n3nc(C(=O)N4CCN(c5ccccc5)CC4)c(Cl)c3N2)cc1OC (stereo unspecified)
1.0	0	CC(N=Cc1ccccc1O)c1ccccc1 (stereo unspecified)
0.7	-4	COc1cc(OC)cc(OC)c1
1.1	-22	NC(=O)c1ccc(NC(=O)CSc2nc3ccccc3[nH]2)cc1
.	1	CS(=O)(=O)NCCS(=O)(=O)N1CCN(c2ccccc2)CC1
.	-14	O=C(Cc1ccsc1)NCC1COc2ccccc2O1 (stereo unspecified)
.	-2	O=C(Oc1ccc(-c2nnco2)cc1)c1ccc2c(c1)S(=O)(=O)c1ccccc1C2=O
.	5	C=CCn1c(SC)nc2sc3c(c2c1=O)CCCC3
.	-9	COc1ccc(CCNC(C)C(=O)Nc2ccc(S(N)(=O)=O)cc2)cc1 (stereo unspecified)
.	-118	O=c1[nH]c(O)c(C=Nc2nc3ccccc3nc2N2CCCC2)c(=O)[nH]1
.	7	COC(=O)c1c(C)nn(-c2ccc(F)c(Cl)c2)c1-c1cc(C)on1
3.5	-4	CCC(C)Nc1nc(NC)nc(NC(C)CC)n1 (stereo unspecified)
.	9	O=C(C1CC(=O)N(C2CCCC2)C1)N1CCC(c2nc3ccccc3s2)CC1 (stereo unspecified)

# Reformatted: 3 of the compounds above.
COc1ccccc1N1CCN(C(=O)c2ccc[nH]c2=S)CC1
  MgrA-DNA mod: .
  S aureus helic: 4
Cn1nnnc1SCC(=O)c1ccc2c(c1)CCC(=O)N2
  MgrA-DNA mod: .
  S aureus helic: -3
Cc1ccc(C(=O)c2cnc3cc4c(cc3c2N2CCC(C(N)=O)CC2)OCO4)cc1C
  MgrA-DNA mod: 6.8
  S aureus helic: 5

# (list continues)
MgrA-DNA mod	S aureus helic	Molecule
.	-4	Cc1nc2ccc(NC(=O)/C=C/c3ccccc3)cc2s1
-0.6	8	CC(C)CSc1nnc2sc3ccccc3n12
24	15	CC1=NOC(=O)/C1=C\C=C/c1ccccc1
2.0	1	CC1Cn2c(C(=O)N3CCc4ccccc4C3)cc3c(Cl)ccc(c32)O1 (stereo unspecified)
-2.8	.	O=C(O)C1C2C=CC(C2)C1C(=O)N1CCc2c([nH]c3ccccc23)C1C(F)(F)F (stereo unspecified)
-3.0	15	O=C(CSC1=NCCS1)N1CCN(c2ccc(Cl)cc2)CC1
0.2	.	COc1ccc(C2CC(=O)C3=C(C2)NC(C)=C(C(=O)OCC(C)C)C3c2ccc(OC)c(OC)c2)cc1 (stereo unspecified)
.	-11	CN1CCN(c2c(C(=O)c3ccccc3)cnc3ccc(Cl)cc23)CC1
2.3	-1	CC(C)Cc1ccc(S(=O)(=O)N2CCCc3ccccc32)cc1
-1.9	7	CCc1ccccc1NC(=O)c1ccc2nc(N3CCC(C)CC3)sc2c1
0.2	6	O=C(Cc1cccs1)Nc1ccc2c(c1)OCCO2
-3.1	.	Cc1n[nH]c(=O)c2nc(-c3ccccc3)sc12
0.1	.	CCCCCCCCCCCCC/C=C/[C@@H](O)[C@H](CO)N(C)C
.	-3	O=C1CN(C(=O)C2CC2)c2ccccc2N1
.	18	CCOC(=O)N1CCN(C(=O)C2CCN(c3nc4ccc(CC)cc4s3)CC2)CC1
0.5	.	S=c1nc(C23CC4CC(CC(C4)C2)C3)[nH][nH]1
0.8	0	NC(=O)COc1ccc(S(=O)(=O)N2CCCC2)cc1Cl
.	9	COc1ccc(C(=O)N[C@H](C(=O)N(C)Cc2ccc(N3CCCCC3)cc2)C(C)C)cc1
1.5	-13	COc1ccccc1/C=C/C(=O)OCC(=O)Nc1ccccc1C(C)C
2.0	16	CCC(=O)Nc1ccccc1C(=O)OCC(=O)c1ccccc1
0.2	6	O=C(CC1C(=O)NCCN1C(=O)c1ccccc1)Nc1cccc(Cl)c1 (stereo unspecified)
1.1	1	CCOC(=O)c1c(-c2ccccc2)n(C)c2ccc(O)cc12
-1.3	.	N#CCCN(CC1CCCO1)C(=S)Nc1ccc(F)cc1 (stereo unspecified)
-1.6	.	COc1ccc(C2CC2/C(C)=N/O)cc1 (stereo unspecified)
.	20	O=c1c2cccc3c2c(nn1CCN1CCCCC1)-c1ccccc1-3
.	2	COc1ccc(-c2nc3ccccn3c2NC(=O)CC(C)C)cc1
-0.2	11	CC(C)CCNC(=O)c1cc(-c2ccccn2)nc2ccccc12
.	-25	CSC1=NC(C)(C)CCC12C=CC(=O)C=C2
0.3	-7	COc1ccccc1NC(=O)c1ccc(C)o1
-0.2	0	OCCNc1ccc(Cl)cc1
.	10	COC(=O)Cn1c(=NC(=O)C(C)C)sc2cc(Cl)ccc21
1.1	13	O=C(CCC(=O)N1CCc2ccccc21)N1CCc2ccccc21
1.8	25	CCC(C)(C)C1CCC(=O)C(C2(O)C(=O)N(C)c3ccccc32)C1 (stereo unspecified)
-1.4	0	CCn1c2c(c3cc(Br)ccc31)CCCC2=O
.	5	CC(OC(=O)c1cccnc1)C(=O)Nc1ccc(Br)cc1 (stereo unspecified)
.	6	CCCOc1ccc(NC(=O)c2cc(=O)n(C)c(=NC)s2)cc1Br
-3.5	8	NC1CCSc2ccccc21 (stereo unspecified)
2.1	3	O=S1(=O)N=C(SCCO)c2ccccc21
-0.1	.	CCCCC/C=C\C/C=C\C/C=C\C=C\[C@@H](O)CCCC(=O)O
.	32	CCCCC(NC1CCS(=O)(=O)C1)C(=O)O (stereo unspecified)
.	35	COC(=O)C1=C(N)n2c(s/c(=C/c3ccncc3)c2=O)=C(C(=O)OC)C1c1ccncc1 (stereo unspecified)
.	-2	Cn1c(=O)oc2cc(S(=O)(=O)NC3CCCc4ccccc43)ccc21 (stereo unspecified)
.	-5	COc1ccc(-c2nnc(-c3cccnc3)o2)cc1OC
.	5	Cc1ccccc1-c1nc(CN2CCC(C(=O)NCC3CCCO3)CC2)c(C)o1 (stereo unspecified)
-2.0	-7	Cc1ccccc1NC(=O)CCC(=O)O
.	7	CN(Cc1ccccc1)c1nnc(N)s1
28	-4	N#C/C(=C\c1ccccc1/C=C(\C#N)c1ccc2c(c1)OCO2)c1ccc2c(c1)OCO2
-3.3	.	CCOC(=O)c1ccc2nc(NC(=O)c3ccc(F)c(Cl)c3)sc2c1
.	25	CC(=O)Nc1sc(C)c(C)c1CN1CCN(S(=O)(=O)c2ccccc2)CC1
.	15	Cc1cccc(OCC(=O)NCCc2ccccn2)c1
.	29	CCCCNC(=O)c1cn(C)c(=O)c2cc(OC)c(OC)cc12
.	4	CC(C)OC(=O)C1CC(C)(O)C(=O)C(C(=O)OC(C)C)C1c1ccc(N(C)C)cc1 (stereo unspecified)
0.1	.	CCCSc1ncccc1C(=O)Nc1cc(C)no1
.	16	O=C(c1cc(-c2ccc(O)cc2)on1)N1CCCc2ccccc21
0.0	8	Cc1cc(NCCO)n2c(nc3ccccc32)c1C#N
-0.4	-16	O=C(Cc1ccccc1)Nc1ccc(N2CCOCC2)c(C(=O)O)c1
.	2	COc1cc(NC(=O)COn2nnc3ccc(S(C)(=O)=O)cc32)cc(OC)c1
.	-26	CCNc1nc(N)c(C(=O)c2ccc(F)cc2)s1
.	1	Cc1cnc(C(=O)OCc2ccc(COC(=O)c3cnc(C)cn3)cc2)cn1
3.1	4	S=CC1=C2NCCCN2C2CCCCC12 (stereo unspecified)

# 6 compounds out of the list above, ordered by the value under MgrA-DNA mod, lowest first:
MgrA-DNA mod	S aureus helic	Molecule
-3.5	8	NC1CCSc2ccccc21 (stereo unspecified)
-3.3	.	CCOC(=O)c1ccc2nc(NC(=O)c3ccc(F)c(Cl)c3)sc2c1
-1.4	0	CCn1c2c(c3cc(Br)ccc31)CCCC2=O
-0.4	-16	O=C(Cc1ccccc1)Nc1ccc(N2CCOCC2)c(C(=O)O)c1
1.1	13	O=C(CCC(=O)N1CCc2ccccc21)N1CCc2ccccc21
28	-4	N#C/C(=C\c1ccccc1/C=C(\C#N)c1ccc2c(c1)OCO2)c1ccc2c(c1)OCO2

# The listing continues.
MgrA-DNA mod	S aureus helic	Molecule
1.8	1	CC1(C)CC2CC(C)(CN2Cc2c(O)ccc3cc(-c4ccccn4)c(=O)oc23)C1 (stereo unspecified)
-3.9	.	Clc1ccc2c(N3CCCCC3)ccnc2c1
-0.3	9	CC1CCC2(CC1)Oc1ccccc1C1CC(c3ccco3)=NN12 (stereo unspecified)
.	7	COC(=O)/C(=C(/O)CSc1nnnn1-c1ccc(O)cc1)c1nc2ccccc2[nH]1
-1.4	-10	COC(=O)c1ccc(CNC(=O)c2cc3c(s2)CCCC3)cc1
.	-25	Cc1cc(C)c(C#N)c(SCC(=O)c2cc(C)n(C3CCS(=O)(=O)C3)c2C)n1 (stereo unspecified)
.	-5	CCCOc1ccc(-c2cc(C(=O)NO)[nH]n2)cc1C
.	9	CCOC(=O)c1ccc(Nc2c(N)c(=O)oc3ccccc23)cc1
-0.2	6	COc1ccccc1OC(=O)CN1C(=O)c2ccccc2C1=O
0.6	.	Cc1ccc(NC(=S)N2CCC(Nc3nccc(C(F)(F)F)n3)CC2)c(C)c1
.	-14	CCOC(=O)CN1C=NS(=O)(=O)c2ccccc21
-0.1	9	NNC(=O)c1ccc2[nH]c3c(c2c1)CCCC3

# The list is partial, so the mix of outcomes need not match the whole.
